Rce1 inhib: yeast Rce1p protease inhibitors, primary screen, biochemical, fluorescence, cell-free homogeneous; CAAX prenyl protease 2 (Saccharomyces cerevisiae (strain ATCC 204508 / S288c)), Q03530; 0.27% of 290,000 active; calls only; yeast membranes, quenched prenylated peptide cleavage fluorescence;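 active = fall in fluorescence gain of 50% or more versus controls, with final raw signal at or below 3038400; inconclusive = same 50% fall but final raw signal above 3038400; inactive = fall in fluorescence gain under 50%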;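 also: plate controls were neutral control wells for no effect and wells lacking membranes for full effect; tested at 10 µM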
Target sequence (Q03530 whole entry, looked up): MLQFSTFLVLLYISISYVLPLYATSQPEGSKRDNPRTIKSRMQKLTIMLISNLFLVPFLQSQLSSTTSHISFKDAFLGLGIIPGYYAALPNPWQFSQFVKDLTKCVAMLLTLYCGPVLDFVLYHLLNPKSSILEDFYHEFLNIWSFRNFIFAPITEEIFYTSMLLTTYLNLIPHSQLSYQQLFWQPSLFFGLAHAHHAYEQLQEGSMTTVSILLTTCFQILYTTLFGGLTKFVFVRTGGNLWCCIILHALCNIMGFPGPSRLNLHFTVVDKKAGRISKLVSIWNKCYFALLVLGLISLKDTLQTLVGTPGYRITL
MT1-MMP act inh: blockers of MT1-MMP proenzyme processing, primary screen, HT1080 RFP-PRO-GFP cells, GFP/RFP fluorescence; GFP/RFP ratio fluorescence, overnight; percent of plate control window, DMSO zero; AID 651647, 2012; GFP/RFP ratio change, % at 20 µM; 0.061% of 360,000 active;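 active = GFP/RFP ratio change of at least 30% with cell ATP level not reduced by more than half and red fluorescence within 50% of control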; also: strong numbers were not always called active
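Material – HT1080 RFP-PRO-GFP cells · Control set – DMSO wells and RFP-L50D-GFP cells · Incubation – overnight cell settling, then overnight compound exposure, 37 °C, 5% CO2 · Compound dosing – single-point 20 µM compound, 1% DMSO · Read-out – GFP/RFP fluorescence ratio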
eIF4H inh: human eIF4H binding inhibitors, primary screen, translation initiation inhibitor project, biochemical, uHTS, fluorescence polarization; inhibition, % at 35 µM; eIF4H fluorescence polarization binding assay; AID 2012, 2009; 0.94% of 290,000 active; Eukaryotic translation initiation factor 4H (Homo sapiens), Q15056;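 active = 50% or more with normal probe brightness, or confirmed in later tests; inconclusive = above 50% with abnormal brightness, or retests that disagree; inactive = below 50% or failed in later tests; about a fifth of its hits are not listed in these tables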;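 also: calls also rest on retests at 20 µM and on dose response follow-up; 0% = protein and probe with vehicle and 100% = probe without protein; strong numbers were not always called active; many hits fall short of the cut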
Yeast UUG start: modulators of yeast start codon fidelity, primary screen, whole organism, S. cerevisiae, single point, plate reader | activity score, % at 18.7 µM | 0.13% of 350,000 active | AID 602363, 2012 | S. cerevisiae UUG-firefly luciferase reporter, luminescence/redox ratio;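 active = replicate mean at a twofold rise or more, about +100% in these data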;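 also: firefly luciferase made from a UUG start codon reports start codon fidelity; reporter light over untreated wells divided by growth signal over untreated wells; some hits fall short of that in this replicate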
HIV Env fusion: inhibitors of HIV-1 Env-driven cell-cell fusion, primary screen, HeLa-JRFL effector, CEM21 target cells, luciferase. inhibition, % at 12.3 µM. 1.1% of 360,000 active. AID 651610, 2012;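 active = mean replicate inhibition score of at least 50 and every replicate individually at or above 50; inconclusive = only one of the two criteria met; inactive = mean below 50 and not all replicates reaching 50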;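 also: 0% = plate neutral controls and 100% = maraviroc near 300 nM; one replicate is shown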
CSC inhib: cancer stem cell viability inhibitors, primary screen, luminescence | AID 2717, 2010 | cancer stem cell-like cells viability | inhibition, % at 7.5 µM | 1.1% of 300,000 active;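 active = mean at 75% or more and at least half the replicates too; inconclusive = mean and replicates disagree; tested in HMLE shEcad cells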;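 also: 0% = median of negative and 100% = median of positive control wells; the first replicate is given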
PABP FP inh: PABP poly(A) RNA binding inhibitors, primary screen, biochemical, fluorescence polarization, uHTS; Polyadenylate-binding protein 1 (Homo sapiens), P11940; inhibition, % at 35 µM; 1% of 290,000 active; AID 2014, 2009;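 active = 50% or more with normal probe brightness, or confirmed in later tests; inconclusive = above 50% with abnormal brightness, or retests that disagree; inactive = below 50% or failed in later tests; about a fifth of its hits are not listed in these tables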;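 also: calls also rest on retests at 20 µM and on dose response follow-up; controls were probe without protein and protein plus probe with vehicle; some compounds called inactive have numbers as strong as hits; many hits fall short of the cut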
MT1-MMP act inh RFP: further read-out of MT1-MMP act inh, marked with its call; RFP signal change, %; measured here: RFP expression control read;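 0 = vehicle wells; hits needed this value within 50% of zero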
* = called active by the depositor; i = inactive; u = inconclusive; x = not tested or not shown; & = joins results of further samples; [ ] = another dose, or the depositor's remark.

SMILES	Rce1 inhib	MT1-MMP act inh	MT1-MMP act inh RFP	eIF4H inh	Yeast UUG start	HIV Env fusion	CSC inhib	PABP FP inh
Oc1ccc(Cl)cc1CNc1nccs1	i	1	1	9	-13	8	-1	8
COC(=O)c1ccc(NC(=O)c2ccc(NC(=O)c3ccco3)cc2)cc1	i	-1	-1	-2	-8	-7	10	3
CCOC(=O)C1CCCN(C(=O)Cc2c(F)cccc2Cl)C1 (stereo unspecified)	i	1	3	2	-9	x	x	5
COc1ccc(S(=O)(=O)N/N=C\c2ccc(OC)c(COc3ccc(C)cc3[N+](=O)[O-])c2)cc1	i	-11	-4	-8	-14	x	1	-8
Cc1ccc(OCCN2CCC2(C)C(=O)NCc2ccc(C(F)(F)F)cc2)cc1 (stereo unspecified)	x	-5	2	x	3	29	x	x
O=C(O)C1(S(=O)(=O)c2ccc(Cl)cc2)CCC1	x	-1	1	-4	-32	-4	-10	6
O=c1ccc(-c2ccc(S(=O)(=O)Nc3cccc(F)c3)o2)n[nH]1	i	1	4	-2	-21	2	-1	-2
COc1ccc(N(CC(=O)Nc2ccccc2C)S(=O)(=O)c2ccccc2[N+](=O)[O-])c(OC)c1	i	-1	-1	-5	x	9	-1	-3
CCOC(=O)C1CCCN(CCC(=O)Nc2cccc(Cl)c2C)C1 (stereo unspecified)	i	0	0	-3	9	8	-15	0
O=C(NC1CC1)C1=C[C@@H](C2CC2)C[C@@H](OCCCCO)O1	i	2	5	x	-4&-9	-3[16.7 µM]	-1	x
O=C(NCCN1CCN(C(=O)C(c2ccccc2)c2ccccc2)CC1)C(=O)Nc1ccccc1	i	1	-1	-7	5	x	-6	-3
CN1Cc2ccccc2CC1CNCc1c(C(=O)N2CCCC2)nc2ccccn12 (stereo unspecified)	i	1	2	-7	0	3	-18	-5
COc1ccc(/C=C(/NC(=O)c2cccs2)C(=O)Nc2ccc(C)cc2)cc1OC	i	1	1	2	x	1	0	7
CC(=O)c1c(C)[nH]c(C(=O)OCCCCN2C(=O)c3ccccc3C2=O)c1C	x	1	-15	-2	-18	98*	-1	7
CC(C)(C)N=Cc1c(O)ccc2oc3c(c12)CCCC3	i	-52	1	47	-18	23	15	u
CCCNC(=O)c1cccc(S(=O)(=O)N2CC3(C)CC2CC(C)(C)C3)c1 (stereo unspecified)	i	-2	-8	x	-17	x	-12	x
CN(C)CCCn1c(N)c(C#N)c2nc(C#N)c(C#N)nc21	i	-7	0	38	-14	x	0	25
COc1cc(Cl)c(C)cc1NCC(=O)Nc1cccc(S(=O)(=O)N2CCCC2)c1	x	-2	-2	x	-8	7	x	x
c1ccc(-c2nc3ccccc3[nH]2)nc1	i	-3	1	-6	-9	-5	7	-12
CCc1ccc(C2CC(c3cccc(Cl)c3)n3nc(N)nc3N2)cc1 (stereo unspecified)	i	-3	-6	-4	4	6	4	-4
CC(=O)c1cccc(S(=O)(=O)Nc2ccccc2N2CCOCC2)c1	x	-3	-1	x	-3	-10	-11	x
C[C@@H]1CN([C@@H](C)CO)C(=O)Cc2cc(NC(=O)Nc3cccc4ccccc34)ccc2O[C@@H]1CN(C)S(C)(=O)=O	x	1	5	x	5&-2	u	-16	x
COc1ccc2c(C)c(Cl)c(=O)oc2c1	i	-4	-1	10	-12	x	4	9
COc1ccc(-c2nc(N)ncc2-c2ccc(Cl)cc2)c(O)c1	i	-2	-5	-7	3	19	-26	-8
Cc1cccc(NC(=S)NCC(c2cccnc2)N2CCOCC2)c1 (stereo unspecified)	i	3	5	-13	x	18	5	-11
COc1ccc(S(=O)(=O)Nc2cccc(SC)c2)cc1C(=O)N1CCOCC1	i	4	1	13	-7	12	-7	-4
CC(=O)Nc1ccc(NC2=CC(=O)c3ccccc3C2=O)cc1	i	10	1	14	41	-49	17	2
Cc1ccc2nc(-c3ccc(NC(=S)NCCC(C)C)cc3)sc2c1	i	6	1	x	-40	-187	2	x
CCN(CC)S(=O)(=O)c1ccc(/C=C/C(=O)OCC(=O)N(C)C)cc1	i	x	x	31	x	-5	4	-14
O=C(NCC1CCCO1)C1CCCN1C(=O)NC1CCCCC1 (stereo unspecified)	i	-1	-6	-3	-17	-83	-10	-4
Cc1cc(C)c2nc(SCCc3ccccc3)nc(C)c2c1	i	3	2	2	x	x	-2	1
CCCc1cc(=O)[nH]c(SCC(=O)Nc2sc3c(c2C#N)CCCC3)n1	i	-2	-2	8	1	2	5	13
Cn1c(Cn2c(=O)sc3ccccc32)nnc1SCC(=O)NCc1ccccc1	x	3	1	-6	-2	-16	-6	-7
Cc1cc(NC(=O)c2cccc(S(=O)(=O)N3CC(c4ccccc4)CC3=O)c2)no1 (stereo unspecified)	i	1	-13	-9	0	13	-11	-4
COc1ccc(N2CCN(C(=O)C3CCCN(S(=O)(=O)c4ccc5c(c4)oc(=O)n5C)C3)CC2)cc1 (stereo unspecified)	i	-4	-24	-13	-30	-7	1	4
O=C(CSc1ncccn1)NC(=O)NC1CCCC1	x	5	10	x	-9	i	x	x
Cc1ccc(C(O)c2ncc(-c3ccccc3F)[nH]2)cc1F (stereo unspecified)	x	1	-7	x	-15	9	x	x
Cc1cccc(OCc2nnc(SCC(=O)N3CC(=O)Nc4ccccc43)o2)c1	i	-1	-4	-5	x	12	-11	0
O=C(Cc1ccccc1)Nc1ccc2c(c1)OC1(CCCC1)O2	x	-1	1	x	-10	x	-7	x
C/C(=C/c1ccccc1)C(=O)N1CCN(c2ccccc2)CC1	i	5	1	3	-7	-7	-5	-2
COc1ccc(CCNC(=O)C2CCN(C(=O)c3ccc([N+](=O)[O-])cc3)CC2)cc1	i	-6	-3	1	x	5	-10	-1
Cc1ccc(NCC(=O)Nc2ccc(F)c(Cl)c2)cc1S(=O)(=O)N1CCOCC1	x	2	-12	x	1	2	x	x
O=C(NCC1COCCO1)c1cc(COc2ccc(F)cc2F)on1 (stereo unspecified)	x	x	x	-1	-5	x	4	-10
COc1ccc(OC)c(/C(O)=C/C(=O)C(=O)Nc2cc(C)cc(C)c2)c1	i	0	4	-8	-25	2	7	8
CCCn1c(SCC(=O)N2CCN(CC)CC2)nc2c1c(=O)n(C)c(=O)n2C	i	-6	-4	-11	-3	-3	-4	-1
CCN(CC(=O)Nc1ccc(C)c(F)c1)CC(=O)NC(C)(C)C	i	1	2	-7	x	21	-1	7
CCOC(=O)C1(Cc2cccc(OC)c2)CCN(CC(O)CO)CC1 (stereo unspecified)	i	-2	0	-8	-9	-19	-7	-4
CCCNC(=O)c1onc(CSc2ccc(Cl)cc2)c1C(=O)NCCOC	i	0	1	x	-8	13	2	x
COc1ccc(OC)c(C2Nc3nc4ccccc4n3C(C)=C2C(=O)Nc2ccc(C)cc2C)c1 (stereo unspecified)	i	-9	3	-9	-20	5	x	-6
O=C(c1cc2c(s1)-c1ccccc1OC2)N1CCCC1	i	1	-3	-4	9	-66	-6	4
CCOc1ccc(N(CC(=O)Nc2ccccc2C(=O)NC(C)CC)S(C)(=O)=O)cc1 (stereo unspecified)	i	4	3	-6	x	x	-10	2
C=CCNC(=O)CSc1nnc(C(CC)N(C)C)n1C1CCCCC1 (stereo unspecified)	i	0	5	-7	-20	-1	-19	-13
CCOc1cc(C=O)ccc1OCC(=O)N1CCCC1	i	4	4	-10	x	-3	x	-1
COC(=O)c1ccc(C(=O)OC)c(NC(=S)N2CCN(c3cccc(Cl)c3)CC2)c1	i	-10	-4	5	-22	5	10	0
COc1ccc(Cl)cc1-c1nc(-c2ccc(NC(=O)c3ccncc3)cc2)no1	i	13	4	x	-10	-15	-1	x
COc1ccc(Nc2ncnc3c2oc2ccccc23)cc1	i	1	-3	1	-12	x	-15	25
Cc1ccc(NC(=S)N/N=C/c2ccc(OCCC(C)C)cc2)c(C)c1	i	4	5	-7	-14	-15	16	4
COc1cccc(OCC(=O)O/N=C(\N)c2ccc(OC)c(OC)c2)c1	i	-2	-2	-4	-14	5	-2	0
Cc1ccc(NC(=O)c2cc3ccccc3cc2O)cc1	i	-13	-16	4	-7	-104	26	2
O=C(OCc1c(F)cccc1Cl)c1cnccn1	i	4	3	-2	-23	11	-8	-2

(further entries)
SMILES	Rce1 inhib	MT1-MMP act inh	MT1-MMP act inh RFP	eIF4H inh	Yeast UUG start	HIV Env fusion	CSC inhib	PABP FP inh
COc1ccccc1N(C)S(=O)(=O)c1ccc(C(=O)NCCCN2CCCC2=O)cc1	x	8	6	x	1	11	x	x
COc1ccc(N(C)S(=O)(=O)c2c(C)[nH]c(=O)[nH]c2=O)cc1	i	0	3	4	x	-23	-3	4
FC(F)C(F)(F)Oc1cccc(Nc2nccn3c(-c4cc(C(F)(F)F)cc(C(F)(F)F)c4)cnc23)c1	x	3	7	x	-22	-35	x	x
CC(C)(C)c1ccc(CC(=O)N2CCC2(C)C(=O)NCc2ccc(Cl)cc2)cc1 (stereo unspecified)	x	7	-16	x	-7	37	x	x
COc1ccc(C)cc1S(=O)(=O)N(C)CC(=O)N1CCC(C(N)=O)CC1	i	5	-2	-3	-10	4	-1	14
COc1ccccc1C(NC(C)=O)c1c(O)ccc2ccc(O)cc12 (stereo unspecified)	i	-1	7	x	-7	6	-2	x
CCC(C(=O)Nc1ccc(C(C)C)cc1)c1ccccc1 (stereo unspecified)	i	0	0	-11	x	-22	-7	4
O=C(c1ccc(CS(=O)(=O)c2c(Cl)cccc2Cl)o1)N1CCN(c2ccccn2)CC1	i	-2	2	-14	0	14	-22	-5
N=C1c2ccccc2CN1NC(=O)c1cccc(S(=O)(=O)N2CCCC2)c1	i	-2	2	-10	-17	-2	-7	-5
O=C(c1ccccc1)N1N=C(c2ccccc2)CC1c1ccccc1O (stereo unspecified)	i	-6	-3	-3	x	18	-4	17
CC(Oc1ccccc1)C(=O)Nc1cccc(F)c1 (stereo unspecified)	i	-1	4	-6	-14	-17	-13	-8
O=C(CC1Oc2ccccc2NC1=O)NC1CC1 (stereo unspecified)	i	1	1	-3	-16	-6	-9	-4
CCOC(=O)c1cn2nc(Oc3ccc(C(=O)OC)cc3)ccc2n1	i	0	-3	-2	x	8	3	-3
CC(=O)NC(=S)Nc1cccc([N+](=O)[O-])c1	i	1	4	8	x	-9	5	3
CC(=O)Nc1ccc(C2NC(=S)N(c3ccccc3C(F)(F)F)C(C)=C2C(=O)N2CCOCC2)cc1 (stereo unspecified)	i	-8	0	-4	-20	15	1	-7
CCOC(=O)c1nnn2c1nc(N(CC)CC)c1ccccc12	i	-1	1	-2	-2	12	-14	3

Compound profiles (already shown):
CC(Oc1ccccc1)C(=O)Nc1cccc(F)c1 (stereo unspecified) as listed: Rce1 inhib: i; MT1-MMP act inh: -1; MT1-MMP act inh RFP: 4; eIF4H inh: -6; Yeast UUG start: -14; HIV Env fusion: -17; CSC inhib: -13; PABP FP inh: -8
O=C(c1ccc(CS(=O)(=O)c2c(Cl)cccc2Cl)o1)N1CCN(c2ccccn2)CC1 as listed: Rce1 inhib: i; MT1-MMP act inh: -2; MT1-MMP act inh RFP: 2; eIF4H inh: -14; Yeast UUG start: 0; HIV Env fusion: 14; CSC inhib: -22; PABP FP inh: -5

Source: PubChem BioAssay
